Assay outcomes: PubChem BioAssay, several laboratories
Bead autofluor = flagged as autofluorescent in microsphere protease counterscreen; AID 624483; compound autofluorescence counterscreen, microsphere flow cytometry; hits give high values; fluorescence intensity (no concentration beside the values); 360,000 compounds, 3.1% hits;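 active means at least 3 SD above the mean of all compounds, about 16000 in these data; inconclusive means too few beads counted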;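 further: 100 nL of 1 mM stock went into each well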
PrP UTR inh = inhibition of PrP 5' UTR reporter expression; cell-based PrP 5' UTR mRNA reporter, plate reader; inhibition, % (concentration not given with the values); 340,000 compounds, 0.35% hits; AID 488862, 2010;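 active means every replicate at 50% or more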;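 further: 0 = median of the neutral control wells; tested in H4 reporter cells; numbers are from one replicate; inactives centre near -14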
Sa ugtP lethal = growth inhibition of ugtP-null S. aureus, primary screen, RN4220 ugtP deletion, OD600. 16 h; some inactives read as strong as hits. growth inhibition, % (concentration not given with the values). 330,000 compounds, 0.54% hits. AID 1259309, 2017;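 active means z-score under -3 and OD600 up to 0.15 on both plates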;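 further: plate controls were untreated wells for no effect and antibiotic for full effect; wells of about 80 µL received 100 nL stock; the first replicate is given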
Mtb hypoxia rep = PubChem AID 1159583. fluorescence inhibition, % (no concentration beside the values). M. tuberculosis hypoxia-regulated fluorescent reporter, fluorescence. 300,000 compounds, 0.1% hits;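 active means 35 to 45% if threefold the growth effect, above 45% if 1.5-fold the growth effect; inactive means the rest, general growth blockers included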;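 further: wells of about 50 µL received 100 nL stock; 0% = vehicle wells and 100% = reference inhibitor wells; whole bacteria with a GFP reporter of the hypoxia response; strong numbers were not always called active; many hits fall short of the cut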
BJeLR lethal = MLPCN primary cell-based screen for lethality selective to Ras in HRASV12 cells. BJeLR (HRASV12) viability, CellTiter-Glo ATP luminescence, 48 h; reference of the scale not given here. inhibition, % (concentration not given with the values). 300,000 compounds, 0.17% hits. AID 1554, 2009;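 active means replicate mean above 50%; inconclusive means above 50% but judged a plate artefact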;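 further: 50 nL library stock added to about 25 µL; numbers are from one replicate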
RN4220 kill = growth inhibition of S. aureus RN4220, primary screen, OD600 | 16 h | inhibition, % (concentration not given with the values) | 330,000 compounds, 0.33% hits | AID 1259311, 2017;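 active means z-score of -3 or lower and OD600 up to 0.18 on both plates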;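 further: plate controls were untreated cells for no effect and reference antibiotic for full effect; stock transfer was 100 nL into about 80 µL; one replicate is shown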
Mtb hypoxia rep growth = second read-out of Mtb hypoxia rep, no call of its own (marks repeat the call); growth inhibition, %; measured here: M. tuberculosis growth (absorbance);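 0% = vehicle and 100% = reference antibiotic; read after six days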
Numbers without * were called inactive; ? = inconclusive; nt = no result given; & = joins results of further samples.

SMILES	Bead autofluor	PrP UTR inh	Sa ugtP lethal	Mtb hypoxia rep	Mtb hypoxia rep growth	BJeLR lethal	RN4220 kill
O=C1CSc2ccc(S(=O)(=O)NCc3ccccc3)cc2N1	4568	-7	7	7	4	9	13
COc1cccc(C2Nc3ccccc3NC3=C2C(=O)CC(C)(C)C3)c1OC (stereo unspecified)	3940	-26	-2	-2	6	3	-3.2
Nc1c(C(=O)c2ccccc2)sc2nsc(SCCN3CCOCC3)c12	nt	nt	1	8	21	6	2.2
CCn1cc(C(=O)Nc2ccc3c(c2)OCCO3)c2cc(OC)c(OC)cc2c1=O	5755	-8	-7	-4	1	6	8.2
CC1Cc2ccccc2N1C(=S)Nc1cccc(S(=O)(=O)N(C)C)c1 (stereo unspecified)	4341	-14	3	7	13	8	13
CCCCCN(C(=O)CSc1n[nH]c(-c2ccc(C)cc2)n1)c1c(N)n(CCCC)c(=O)[nH]c1=O	6669	-18	8	10	4	-7	1.3
CCOP(=O)(OCC)C(NC(=O)c1cccs1)c1ccccc1 (stereo unspecified)	6223	-10	7	3	2	-2	4.3
Cc1ccc(N(CC(=O)NCC2CCCO2)S(=O)(=O)c2ccc(Cl)cc2)cc1C (stereo unspecified)	5621	-16	6	10	2	3	-0.5
CCC(=O)N1CN(S(=O)(=O)c2ccc(C)cc2)CC1C (stereo unspecified)	21656*	-24	-1	5	9	-14	5.0
COc1ccc(Br)cc1CN1CCCC(C(=O)N2CCCCC2)C1 (stereo unspecified)	4495	-16	1	-1	11	5	0.5
COc1cc(C)c(NC(=O)c2cccc(S(=O)(=O)N3CCCC3)c2)cc1OC	3716	-13	-1	-8	7	nt	-0.5
O=C(N/N=C/c1ccc([N+](=O)[O-])cc1)c1cccc(N2CCCC2=O)c1	6519	6	nt	nt	nt	-8	nt
COc1ccccc1OCCn1cc(C=Nn2cnnc2)c2ccccc21	nt	nt	2	-2	-15	nt	5.1
CS(=O)(=O)c1ccc(Cl)c(NC(=O)c2cc(S(=O)(=O)N3CCOCC3)ccc2N2CCCC2)c1	4524	2	-1	-8	-4	5	-3.1
CCC1(c2ccc(C)cc2)NC(=O)N(C(C)C(=O)Nc2ccc(N3CCOCC3)cc2)C1=O (stereo unspecified)	2829	-22	4	-1	-1	nt	0.7
Cn1nc(C(=O)NCCc2ccc(S(N)(=O)=O)cc2)c2c1-c1ccccc1S(=O)(=O)C2	5015	-23	6	3	5	22	1.5
Cc1cc(C)c(NC(=O)COC(=O)C2=COCCO2)c(Cl)c1	4474	-37	-1	8	-4	-4	1.3
Cc1cc(NC(=S)N(CCCN2CCOCC2)Cc2ccco2)ccc1Cl	11578	-17	-5	11	12	6	3.3
Cc1ccc(C(=O)c2cn[nH]c2-c2ccccc2O)cc1	3228	-41	-15	1	6	-10	2.7
CSc1nc2ccc(NC(=O)c3ccco3)cc2s1	2380	-96	35	5	6	-8	4.0
C=CCNC(=O)c1onc(CSc2ccc(F)c(F)c2)c1C(=O)NCC=C	3399	1	3	8	-1	2	5.9
Cc1c(NC(=O)C(C)OC(=O)CCc2c[nH]c3ccccc23)c(=O)n(-c2ccccc2)n1C (stereo unspecified)	5822	-8	nt	nt	nt	5	nt
Cc1ccc(OCC(=O)OCC(=O)c2c(N)n(C)c(=O)n(C)c2=O)cc1C	?	2	-2	-2	-6	8	6.8
O=C(NCCCn1ccnc1)C(=O)NCC1OCCN1S(=O)(=O)c1ccccc1 (stereo unspecified)	2126	-22	nt	nt	nt	-5	nt
CN(Cc1ccccc1)C(=O)c1ccc(NC(=O)C2=CSCCO2)cc1	5352	-52	1	-2	0	-2	3.1
CCCC(=O)Nc1ccc(NC(=O)c2cc3ccccc3o2)c(OC)c1	2910	-52	1	13	6	3	6.3
O=C(CCS(=O)(=O)c1cccc2nonc12)N1CC(=O)N(CCc2ccccc2)C(=O)C1	4052	-6	-4	-5	-1	-4	0.5
CCOC(=O)c1c(C)[nH]c(N=Nc2ccccc2Cl)c1C	4129	-56	54	-1	8	-3	3.1
CCCOC(=O)c1[nH]c2c(c1C)C(=O)CC(c1cc(OC)c(OC)c(OC)c1)C2 (stereo unspecified)	5475	-5	0	nt	nt	3	-4.6
CC1=C2[C@@H]3OC(=O)[C@H](C)C3CC[C@@]2(C)C=CC1=O (stereo partly specified)	3764	-16	14	15	3	-9	7.1
O=C(O)CCCSCC(=O)Nc1ccccc1	10821	5	-5	-4	10	-4	-0.5
COc1ccccc1/C=C/C=NNC(=O)c1cnccn1	nt	nt	3	-1	0	nt	1.3
COc1cccc(C(=O)C2CCCN(C(=O)c3cccc(C#CC(C)(C)O)c3)C2)c1 (stereo unspecified)	3867	-18	-69	7	6	7	15
O=C(NCC1CCCO1)C1CC(=O)N(C2CCCC2)C1 (stereo unspecified)	11444	-24	2	4	0	-4	1.2
COc1cc(/C=C2/SC(=S)N(CC(=O)Nc3nc4ccccc4s3)C2=O)cc(OC)c1OC	5455	-6	-11	-14	-1	1	0.6
C[C@H](CO)N1C[C@H](C)[C@@H](CN(C)Cc2ccc(Oc3ccccc3)cc2)Oc2c(NS(=O)(=O)c3cn(C)cn3)cccc2C1=O	2910	-12	8	5	1	nt	-16
Cc1ccc2c(c1)C1C(CO2)C(c2ccccc2)[C@]2(C)C(=O)Nc3ccc(F)cc3C(=O)N12 (stereo partly specified)	nt	nt	-6	-8	10	nt	-10
O=S(=O)(c1cccc2cccnc12)N1CCCc2ccccc21	4781	-7	5	9	2	6	-2.8
CCOc1ccccc1C=NNc1ccccc1[N+](=O)[O-]	nt	nt	-10	3	-2	nt	-2.7
Cc1ccc(NC(=O)CCc2c(C)nn(-c3ccc(N4CCCCC4)nn3)c2C)cc1C	5019	-37	-5	1	15	-8	-4.0

Ordered by length of the SMILES (rising): some entries from above.
SMILES	Bead autofluor	PrP UTR inh	Sa ugtP lethal	Mtb hypoxia rep	Mtb hypoxia rep growth	BJeLR lethal	RN4220 kill
O=C(O)CCCSCC(=O)Nc1ccccc1	10821	5	-5	-4	10	-4	-0.5
O=C(NCCCn1ccnc1)C(=O)NCC1OCCN1S(=O)(=O)c1ccccc1 (stereo unspecified)	2126	-22	nt	nt	nt	-5	nt
Cc1ccc(NC(=O)CCc2c(C)nn(-c3ccc(N4CCCCC4)nn3)c2C)cc1C	5019	-37	-5	1	15	-8	-4.0
COc1cccc(C(=O)C2CCCN(C(=O)c3cccc(C#CC(C)(C)O)c3)C2)c1 (stereo unspecified)	3867	-18	-69	7	6	7	15
COc1cc(/C=C2/SC(=S)N(CC(=O)Nc3nc4ccccc4s3)C2=O)cc(OC)c1OC	5455	-6	-11	-14	-1	1	0.6
Cc1c(NC(=O)C(C)OC(=O)CCc2c[nH]c3ccccc23)c(=O)n(-c2ccccc2)n1C (stereo unspecified)	5822	-8	nt	nt	nt	5	nt

Later entries.
SMILES	Bead autofluor	PrP UTR inh	Sa ugtP lethal	Mtb hypoxia rep	Mtb hypoxia rep growth	BJeLR lethal	RN4220 kill
Cc1ccc(CCNC(=O)C2CCCN2S(=O)(=O)c2ccc3c(c2)CCC(=O)N3)cc1 (stereo unspecified)	5867	-136	-4	3	8	1	-11
COc1cc(C(=O)OC2CCCCC2=O)cc(OC)c1C (stereo unspecified)	8699	-20	-3	2	-16	6	5.0
Cc1nn(-c2ccccc2)c(C)c1NC(=O)COC(=O)CCOc1ccccc1	5794	-22	7	3	6	3	1.2
CCCCNS(=O)(=O)c1ccc(NS(=O)(=O)c2c(C)cc(C)cc2C)cc1	16873*	-12	-9	4	6	-3	-1.8
FC(F)(F)c1cc(-c2ccco2)nc2ncnn12	11080	-22	6	8	2	3	0.2
CCC1(c2ccccc2)NC(=O)N(CC(=O)NC2CCCCCC2)C1=O (stereo unspecified)	5541	-9	3	10	3	nt	8.0
NC(=NO)c1ccc([N+](=O)[O-])s1	nt	nt	11	-5	-3	nt	9.3
COc1ccc(-c2cc(-c3n[nH]c(=S)n3-c3cc(OC)ccc3OC)[nH]n2)cc1	2251	-9	32	4	8	-13	4.0
Cc1ccn2c(Nc3ccccc3)c(-c3ccccn3)nc2c1	3459	-14	-7	9	21	11	21
CCc1ccc(NC(=O)CCc2c(C)nn(-c3ccc(N4CCCCC4)nn3)c2C)cc1	4774	-75	14	3	1	-4	-7.3
CCc1cccc(C)c1NC(=O)COn1nnc2ccc(C(F)(F)F)cc21	1998	-17	-1	11	6	-5	5.7
COc1ccccc1NC(=O)NCCCN1CCN(c2cccc(Cl)c2)CC1	5838	4	0	0	1	-4	-0.2
CCOC(=O)CCC(=O)Nc1ccc(S(=O)(=O)N2CCCC2)cc1	7932	-13	6	0	9	-5	3.8
COc1cc(/C=C2\C(=O)N(c3ccc(NC(C)=O)cc3)N=C2c2ccccc2)ccc1O	4512	-17	6	6	1	nt	4.6
CCOc1ccccc1-c1nc(CN2CCC(C(=O)N3CCOCC3)CC2)c(C)o1	7062	-8	2	4	0	-5	1.8
Cc1ccc(-n2c(-c3cccs3)nc3ccccc3c2=O)cc1	2512	-25	nt	nt	nt	2	nt
CC(=O)c1ccc(C(=O)N2CCCC(N3CCN(c4ccc(F)cc4)CC3)C2)s1 (stereo unspecified)	4125	-11	4	6	2	-2	-0.1
O=C1CCc2cc(S(=O)(=O)N3CCC(C(=O)NC4CCCCCCC4)CC3)ccc2N1	5149	-22	2	nt	nt	nt	1.9
CC(=O)Nc1ccc(NC(=O)C(C)OC(=O)C2CCN(S(=O)(=O)c3cccs3)CC2)cc1 (stereo unspecified)	4121	-8	8	8	3	2	5.5
CC(=O)CCc1c[nH]c2c(C(=O)O)cccc12	2689	-7	5	nt	nt	7	3.9
NC(=S)NNC(=O)c1cc(C(F)(F)F)cc(C(F)(F)F)c1	nt	-8	8	-3	-5	-17	3.6
COCCCNC(=O)c1ccc2c(c1)ncn2-c1ccc(C)cc1C	3137	19	5	2	-6	8	1.3
O=C(CN1C(=O)c2ccccc2S1(=O)=O)c1ccc(F)cc1	3857	62*	-1	5	14	-12	2.1
CCN(CC)C(=O)C1CCCN(Cc2sccc2C)C1 (stereo unspecified)	4988	-14	4	-5	-2	-2	5.6
CS(=O)(=O)c1ccc(Cl)c(C(=O)Nc2ccc3nc(N4CCOCC4)sc3c2)c1	7377	-32	-6	7	-3	nt	1.7
Nc1ccccc1NC1CCCCC1	2264	-22	0	nt	nt	nt	16
COc1cc(=O)[nH]c(SC(C)C(=O)Nc2nc3c(s2)CCCC3)n1 (stereo unspecified)	3517	-23	8	14	6	4	1.2
CC1=C(C(=O)Nc2ccccc2F)C(c2cccs2)C2=C(CCCC2=O)N1 (stereo unspecified)	2171	-21	5	5	11	-1	1.8
C=CCNC(=S)N=c1ccccn1C	nt	nt	0	15	0	nt	2.8
CCOc1ccc(-c2c(C#N)c(N)nc3c2c(=O)n(C)c(=O)n3C)cc1OC	2699	-6	3	10	11	4	3.1
O=C(COc1ccc(Br)cc1)N/N=C1/SCC(=O)N1Cc1ccccc1	2426	-33	nt	nt	nt	-9	nt
Nc1ncccc1OCc1ccc(Cl)c(Cl)c1	nt	-63	-2	0	-3	-4	7.6
CN(C(=O)CSc1nnnn1-c1ccc(O)cc1)C1CCS(=O)(=O)C1 (stereo unspecified)	2111	-17	4	8	7	-1	4.0
CCOC(=O)N1CCC(Nc2c(NCCN3CCN(c4ccccc4F)CC3)c(=O)c2=O)CC1	4325&5988	-23&-27	3&-7	2&-2	6&-1	1	5.9&4.9
Cc1ccc(O)c(NC(=O)CSc2ccc(Cl)cc2)c1	3274	-15	22	8	5	3	8.7
Cc1cc2cc(C=O)c(Cl)nc2cc1C	17857*	-19	15	2	7	1	3.5
COc1ccccc1-c1cc(C(F)(F)F)nc(N2CCOCC2)n1	4429	-15	23	5	5	-10	-0.4
O=C(CCCN=C1NS(=O)(=O)c2ccccc21)OCC(=O)N1CCc2ccccc21	10102	-15	-2	-3	2	-6	-0.7
O=C(Cc1ccc(S(=O)(=O)N2CCOCC2)s1)NCCc1ccc(F)cc1	6139	-23	5	2	4	3	1.7
COc1cccc(NC(=S)NCCCN2CCOCC2)c1	2201	-24	2	7	3	0	3.5
O=C1OC(c2ccccc2)=N/C1=C/c1cccc(OC(=O)c2cccs2)c1	2421	4	-1	nt	nt	-18	-2.0

Rows are unselected (roughly 4.1% active in at least one column).
